Beta apoptosis – blocks beta cell apoptosis; 300,000 tested, 0.8% active; protection from apoptosis, % (test concentration not listed); INS-1E cytokine-induced death, ATP luminescence, 48 h; percent of positive-control rescue, neutral wells zero; AID 435005;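 active = all replicates at 75% or more, or half of them and the mean; inconclusive = half reach 75% but not the mean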;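 also: 0% = cytokine-treated negative control wells and 100% = positive control rescue; higher means more ATP so stronger rescue from cytokine killing; wells of about 40 µL received 100 nL stock; the first replicate is given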
ALR H2O2 inh – blocks human ALR sulfhydryl oxidase activity; P55789; purified ALR, DTT oxidation, H2O2 HRP-luminol luminescence; inhibition, % (no concentration beside the values); 290,000 tested, 3.8% active;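 active = mean and each replicate at 75% or more; inconclusive = only one of the two met; inactive = neither met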;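 also: stock transfer was 7.5 nL into about 7.5 µL; 0% = neutral wells and 100% = wells with inactivated enzyme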
Target sequence (P55789 whole entry, looked up): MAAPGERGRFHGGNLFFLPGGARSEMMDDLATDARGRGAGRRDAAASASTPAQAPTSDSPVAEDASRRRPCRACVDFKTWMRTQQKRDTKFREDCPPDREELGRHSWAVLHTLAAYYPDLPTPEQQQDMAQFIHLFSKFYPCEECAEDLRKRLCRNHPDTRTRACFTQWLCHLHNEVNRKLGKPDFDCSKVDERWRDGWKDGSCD
Bfl-1 A1 inh – inhibitors of the anti-apoptotic protein A1, read as caspase activation; MEF A1-2A-BIM cells, Caspase-Glo 3/7 luminescence, 3 h; percent of clofoctol response, vehicle zero; caspase activation, % (no concentration beside the values); 330,000 tested, 0.066% active; AID 2462;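 active = over half of replicate activation scores above 10%, or exactly half above 10 with the replicate mean above 10; inconclusive = replicate mean below 10 yet half the replicates above 10; inactive = over half of replicates below 10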;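 also: wells of about 30 µL received 50 nL stock; many hits fall short of the cut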
Calb FLC – affects C. albicans growth with fluconazole. C. albicans CaCi-2 (fluconazole-resistant clinical isolate) + fluconazole, Alamar Blue growth, 48 h. growth inhibition, % (test concentration not listed). 300,000 tested, 0.57% active;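 active = most replicates above 75%; inconclusive = exactly half above 75%; inactive = most below 75%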;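 also: all wells also contain fluconazole at 8 µg/ml as a sub-toxic cotreatment; 0% = median of DMSO wells and 100% = median of geldanamycin control wells; wells of about 8 µL received 7.5 nL stock; the first replicate is given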
LANA-H2A inh – blocks KSHV LANA binding to histone H2A/H2B. inhibition, % (no concentration beside the values). cell-free LANA-H2A/H2B peptide, fluorescence polarization. 320,000 tested, 0.6% active; in the data active = inhibition mostly above about 10%, no sharp cut-off; inactive = mostly below about 6.7%;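 also: stock transfer was 7.5 nL into about 10 µL; 0% = median of vehicle wells and 100% = median of positive control wells; one replicate is shown; the record names a cut of 25% in any replicate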
T cruzi inh – blocks replication of Trypanosoma cruzi; 300,000 tested, 1.4% active; inhibition, % (concentration not given with the values); T. cruzi beta-gal in NIH3T3, luminescence, 90 h;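 active = mean inhibition across valid replicates above about 55%, limit read from the data; inconclusive = mean below that limit but half or more replicates reach it; inactive = mean below it, under half of replicates reach it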;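 also: signal also drops with host cell toxicity which is not excluded here; 0% = plate median of DMSO wells and 100% = zero luminescence signal; higher percent means less beta-gal luminescence so fewer parasites; stock transfer was 50 nL into about 50 µL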
rRNA inh HTS – inhibitors of bacterial rRNA selective over humanized ribosomes. E. coli WT GFP vs humanized-ribosome RFP mutants, fluorescence, 24 h; hits give low values; DMSO median 0, no signal -100. GFP signal change (wild-type ribosome), % (concentration not given with the values). 350,000 tested, 1.6% active. AID 720706;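 active = significant combined selectivity score with lowered wild-type GFP, culture density cut under 30%, mutant RFP and density less affected; inactive = any of these conditions unmet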; also: one replicate is shown; some compounds called inactive have numbers as strong as hits
B2AR ag – activates human beta-2 adrenergic receptor causing internalization | Am2.2-beta2AR cells, FAP receptor internalization, flow cytometry; reference of the scale not given here | response, % (concentration not given with the values) | 340,000 tested, 0.43% active | AID 504454;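 active = response above a set limit, near 3 SD of response in nonfluorescent compounds, cut at about 42% in these data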;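 also: stock transfer was 100 nL into about 11 µL; a reference agonist was the positive control; negative values mostly stem from fluorescent compounds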
Target sequence (P07550 whole entry, looked up): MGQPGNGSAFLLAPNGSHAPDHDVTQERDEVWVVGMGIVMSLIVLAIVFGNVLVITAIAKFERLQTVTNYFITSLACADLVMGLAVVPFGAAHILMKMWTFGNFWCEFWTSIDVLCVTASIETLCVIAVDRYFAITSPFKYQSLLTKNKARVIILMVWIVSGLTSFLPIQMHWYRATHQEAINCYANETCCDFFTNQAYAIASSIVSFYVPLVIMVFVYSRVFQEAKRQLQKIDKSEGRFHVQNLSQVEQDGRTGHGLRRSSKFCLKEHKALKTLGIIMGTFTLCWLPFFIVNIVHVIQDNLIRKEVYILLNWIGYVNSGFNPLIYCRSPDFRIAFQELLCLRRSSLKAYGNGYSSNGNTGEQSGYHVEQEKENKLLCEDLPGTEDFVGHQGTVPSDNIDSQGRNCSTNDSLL
rRNA inh HTS OD600 – second read-out of rRNA inh HTS, no call of its own (marks repeat the call); OD600 change, %; measured here: OD600 growth;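 optical density of the mix in the first replicate; 0 = DMSO median and -100 = no signal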
rRNA inh HTS RFP – also measured in rRNA inh HTS; calls as there; RFP signal change, %; measured here: RFP humanized mutant strains;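 first replicate; 0 = DMSO median and -100 = no signal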
* = called active by the depositor; ? = inconclusive; · = not tested or not shown. This is a subset; the hit share may differ from the screen's.

SMILES	Beta apoptosis	ALR H2O2 inh	Bfl-1 A1 inh	Calb FLC	LANA-H2A inh	T cruzi inh	rRNA inh HTS	rRNA inh HTS OD600	rRNA inh HTS RFP	B2AR ag
C=CCn1c2ccccc2c(=O)c2cc(C#CC3(O)CCCCC3)ccc21	6	-8	0.3	2	-4.9	40	10	10	-2.4	13
CC(C)n1nc(Cc2cccc3ccccc23)c(C#N)c1N	-7	-6	-0.5	0	0.2	-3	-15	-16	-13	-10
CC(C)(C)OC(=O)N1CCC(CC2CC(c3cccc(Br)c3)=NO2)(C(=O)O)CC1 (stereo unspecified)	·	8	-0.6	-12	0.6	-3	-38	-33	-12	-2
C#CCOCCOCCOCCNc1nc(N2CCN(C(=O)C([C@@H](C)O)n3cc([C@@H](N)CCCCN)nn3)CC2)nc(N2CCN(C(=O)[C@H](CCC(=O)O)n3cc([C@@H](N)[C@H](C)CC)nn3)CC2)n1 (stereo partly specified)	-1	·	0.4	·	3.8	·	12	4	-1.9	-7
COc1ccc(-c2noc(-c3cccc(Cl)c3)n2)cc1OC	-1	5	-1.9	-7	-6.3	1	·	·	·	-13
COCCNC(=S)N(C)C1(c2ccccc2Cl)CCCCC1=O (stereo unspecified)	-1	-2	1.7	0	-5.3	-9	8	3	1.6	2
COc1ccc(C(=O)Oc2cc(C)c(CN3CCOCC3)cc2C)cc1OC	1	-5	0.3	5	1.7	8	-2	-7	-0.4	2
Cc1noc(C)c1CNCc1ccccc1	-7	·	0.5	2	4.5	-10	3	8	9.7	-1
CC(C)(C)C(=O)NC(=S)Nc1cc(C(F)(F)F)ccc1N1CCOCC1	-4	0	1.0	-9	-1.7	5	·	·	·	-2
CCOC(=O)CSc1nc2sc3c(c2c(=O)n1-c1ccccc1)CCN(C(C)C)C3	-9	100*	-0.2	8	2.7	29	6	6	1.5	11
OC(C#CCN1CCOCC1)c1cccs1 (stereo unspecified)	1	3	0.6	6	-3.6	-18	·	·	·	-3
C[C@H]1COC(=O)[C@@H](Cc2ccc(F)cc2)C/C=C\C[C@H](CC(=O)NCCO)C(=O)N1	-1	-4	-1.1	·	-16	·	0	11	7.9	7
O=C(COc1ccccc1[N+](=O)[O-])NCC1COc2ccccc2O1 (stereo unspecified)	-2	-21	-0.4	·	8.7	·	-10	-24	1.6	-12
CCOC(=O)N1CCN(C(=O)/C=C/c2c(C)nn(-c3ccc(F)cc3)c2Cl)CC1	·	·	·	30	·	30	7	7	-2.4	0
COc1ccnc(Oc2ccc(F)cc2)c1C(=O)N/C=N/OCc1ccc(Cl)cc1Cl	·	-1	-0.6	5	3.7	8	-11	-18	9.4	26
Cc1ccc(CC2SC(N=C(N)N)=NC2=O)cc1 (stereo unspecified)	-5	20	-0.7	-5	2.9	-7	8	0	2.0	3
CCOC(=O)Cn1nnnc1CN(Cc1ccc(OC)cc1)Cc1cc2cc(C)ccc2[nH]c1=O	-1	-5	0.1	4	-4.5	-8	·	·	·	39
CCC(C)NC(=O)COc1ccc(OCc2ccccc2)cc1 (stereo unspecified)	1	-14	0.1	?	1.7	-3	-7	-10	-2.9	13
COc1ccc2sc(-c3ccccc3OC)c(-c3ccc4c(c3)OCCO4)c2c1	8	-3	1.2	·	13	·	7	9	-1.8	2
CCCn1c(SCC(=O)c2cc(C)n(-c3ccc4c(c3)OCO4)c2C)n[nH]c1=O	8	·	0.5	-3	·	-40	-14	-22	-9.6	0
COc1ccccc1OCCC(=O)OCC(=O)NCc1ccc(Cl)cc1	-1	97*	0.8	-4	0.7	-18	7	15	-1.3	-5
N=C1C(c2nc(-c3ccc(F)cc3)cs2)=C(O)CN1CCCN1CCOCC1	3	41	0.2	1	-2.1	0	·	·	·	-11
COc1cc(C(=O)Nc2cc(-c3ccccc3)[nH]n2)cc(OC)c1OC	1	-11	4.7	-9	-4.5	-1	·	·	·	33
Cc1cccc(OCC(=O)Nc2ncn[nH]2)c1C	-1	-3	-3.6	-3	-3.4	-8	11	14	8.5	-5
Cc1ncc(CO)c2cc(-c3nnc(Nc4ccc5c(c4)OCO5)s3)c(=O)oc12	1	-4	1.1	6	-1.8	-9	8	9	2.1	-2
COc1cc2c(cc1OC)C(=O)N(C)CC2	-1	1	1.5	-3	-3.9	2	0	2	-13	0
O=C(Cc1c(F)cccc1Cl)N1CCOCC1	-1	-5	0.5	-2	2.8	-5	-5	1	2.6	0
Cc1cccc(OCC(O)CN2CCNCC2)c1 (stereo unspecified)	·	-5	-0.4	-2	-1.6	-10	14	6	-3.8	-3
COc1ccc(Cn2c(C)nnc2-c2cnn(C)c2N)cc1	-10	-18	0.4	-2	-5.5	-7	11	9	2.7	0
CC(C)N(Cc1ccccc1)C(=O)COC(=O)/C=C/c1cnc2ccccc2n1	-4	4	-0.5	-3	1.3	-9	-26	-25	-1.0	0

Whole records as entered above. Order of screens: Beta apoptosis	ALR H2O2 inh	Bfl-1 A1 inh	Calb FLC	LANA-H2A inh	T cruzi inh	rRNA inh HTS	rRNA inh HTS OD600	rRNA inh HTS RFP	B2AR ag
O=C(Cc1c(F)cccc1Cl)N1CCOCC1 is entered as -1	-5	0.5	-2	2.8	-5	-5	1	2.6	0
CCCn1c(SCC(=O)c2cc(C)n(-c3ccc4c(c3)OCO4)c2C)n[nH]c1=O is entered as 8	·	0.5	-3	·	-40	-14	-22	-9.6	0
COc1ccccc1OCCC(=O)OCC(=O)NCc1ccc(Cl)cc1 is entered as -1	97*	0.8	-4	0.7	-18	7	15	-1.3	-5

Later entries.
SMILES	Beta apoptosis	ALR H2O2 inh	Bfl-1 A1 inh	Calb FLC	LANA-H2A inh	T cruzi inh	rRNA inh HTS	rRNA inh HTS OD600	rRNA inh HTS RFP	B2AR ag
CC(C)OC(=O)c1nnn(-c2nonc2N)c1CSc1ccccn1	·	-4	0.3	-1	0.6	-5	·	·	·	4
Cc1ccc(C)c(N2CCN(S(=O)(=O)c3c(C)[nH]c(C)c3C(=O)N3CCCCC3)CC2)c1	·	-3	0.4	6	1.1	22	6	-23	0.9	1
C=CC[C@H](CC(=O)NCCO)C(=O)NC[C@H](OC(=O)[C@@H](CC=C)Cc1ccc(F)cc1)c1ccccc1	3	11	-0.8	·	-1.4	·	0	-5	-0.5	4
CN1CCN(c2nc(-c3ccncc3)nc3ccccc23)CC1	3	-1	1.2	2	0.9	52	·	·	·	-9
CCCc1nnc(SCC(=O)N2CCCC2)n1CC1CCCO1 (stereo unspecified)	0	-2	0.6	2	2.5	17	·	·	·	-14
O=C(CCC(=O)Nc1ccccc1)NNC(=O)c1cccs1	-2	-17	0.3	?	-3.5	-12	·	·	·	4
CCN(C(=O)c1cc2cccc(OC)c2oc1=O)c1ccccc1	-5	3	0.1	0	7.0	3	·	·	·	-3
O=C(O)CCCCNS(=O)(=O)/C=C/c1ccccc1	-10	-14	0.4	-4	0.8	-10	-5	-12	-3.2	-10
COc1cccc(CNS(=O)(=O)c2c(C)[nH]c(C)c2C(=O)N2CCCCC2)c1	-8	-2	0.2	-10	-5.5	11	4	0	-1.0	-21
CCN(CC)CC(=O)Nc1sc(C)cc1C(=O)c1ccccc1	2	12	0.1	8	6.2	12	-29	-43	-23	-2
CCN(Cc1nc2ccccc2c(=O)[nH]1)Cc1nc2cc(OC)c(OC)cc2c(=O)[nH]1	1	-3	0.5	26	2.1	-1	·	·	·	-9
CCOc1ccc(/C=C/C(=O)Nc2ccc(N3CCOCC3)cc2)cc1	-5	·	1.1	-3	1.2	20	·	·	·	-1
Cc1nnc(NCc2n[nH]c(=O)c3ccccc23)c2ccccc12	23	-4	0.4	4	-7.8	18	10	2	0.0	20
CCOC(=O)c1sc(NC(=O)c2sc(C)nc2C)nc1C	4	0	-4.8	21	-1.0	-6	2	3	2.8	-2
O=C(CCCCCCCCC(=O)N/N=C/c1ccco1)N/N=C/c1ccco1	9	16	-0.2	-15	-6.3	-15	13	1	5.1	6

In another format: results already given
> O=C(CCCCCCCCC(=O)N/N=C/c1ccco1)N/N=C/c1ccco1
  Beta apoptosis: 9
  ALR H2O2 inh: 16
  Bfl-1 A1 inh: -0.2
  Calb FLC: -15
  LANA-H2A inh: -6.3
  T cruzi inh: -15
  rRNA inh HTS: 13
  rRNA inh HTS OD600: 1
  rRNA inh HTS RFP: 5.1
  B2AR ag: 6
> Cc1ccc(C)c(N2CCN(S(=O)(=O)c3c(C)[nH]c(C)c3C(=O)N3CCCCC3)CC2)c1
  Beta apoptosis: ·
  ALR H2O2 inh: -3
  Bfl-1 A1 inh: 0.4
  Calb FLC: 6
  LANA-H2A inh: 1.1
  T cruzi inh: 22
  rRNA inh HTS: 6
  rRNA inh HTS OD600: -23
  rRNA inh HTS RFP: 0.9
  B2AR ag: 1

Carrying on.
SMILES	Beta apoptosis	ALR H2O2 inh	Bfl-1 A1 inh	Calb FLC	LANA-H2A inh	T cruzi inh	rRNA inh HTS	rRNA inh HTS OD600	rRNA inh HTS RFP	B2AR ag
C=C(C)CSc1nc2sc3c(c2c(=O)n1C1CCCCC1)CCN(C)C3	-4	·	-0.6	16	-0.4	59*	-12	-5	13	3
O=C(Nc1ccccc1)c1oc2ccccc2c1NC(=O)C1CC1	-1	-2	0.5	2	4.0	13	21	27	3.3	-13
CCCC(=O)Oc1ccc2c(C)cc(=O)oc2c1	-5	·	0.3	25	-1.9	-2	0	-5	-2.3	-1
Cc1csc2c(N3CCCCC3)ncnc12	-3	-16	-0.1	12	8.1	-10	-9	-13	-3.3	-7
Cc1oc2cc3oc(=O)cc(C)c3cc2c1C	2	2	-1.3	-9	-2.7	-11	7	12	-0.1	-2
Cc1ccc(C2N(C)C(=O)c3ccccc3N2C)cc1 (stereo unspecified)	1	15	2.0	-14	-2.2	-12	-10	-9	1.9	0
COCc1cc(C)nc(SCC(=O)Oc2ccccc2)c1C#N	3	1	-0.5	-5	1.7	-10	-7	-6	-3.9	-2
Cc1ccccc1OCCCCc1c(C)n[nH]c1C	49	-51	0.5	6	0.3	15	-57	-79	-32	4
Cc1ccccc1-c1nnn(Cc2ccc(-c3nn[nH]n3)cc2)n1	-5	21	0.4	-3	1.8	-4	-34	-54	-6.2	-4
COc1ccccc1NC(=S)N(CCN1CCOCC1)Cc1ccccc1F	-2	5	-0.4	-2	-0.2	1	1	3	1.2	-10
O=C(CSc1nnc2n(C3CCCCC3)c(=O)c3ccccc3n12)OC1CCCCC1	-1	-6	0.0	14	-4.0	18	·	·	·	-2
COc1cc2[nH]c(=S)n(Cc3ccccc3)c(=O)c2cc1OC	9	2	0.9	-1	3.2	15	8	6	-0.8	3
Cc1ccc(NC(=O)C(C)N2C(=O)c3ccccc3S2(=O)=O)cc1Cl (stereo unspecified)	-3	-1	0.1	5	0.2	9	-4	9	1.8	-1
O=C(NNC(=O)C1CCC1)c1ccc(Br)cc1	-5	0	0.9	-2	-4.6	-2	3	14	-0.8	0
Cc1ccc(N(C)S(=O)(=O)c2ccc3c(c2)CC(C)N3C(=O)C2CC2)cc1 (stereo unspecified)	4	-8	-0.3	1	3.7	-4	-10	-10	-0.4	-2
